High-throughput results: PubChem, several laboratories
T cruzi inh: blocks replication of Trypanosoma cruzi. inhibition, % (no concentration beside the values). T. cruzi beta-gal in NIH3T3, luminescence, 90 h. actives 1.4% (n = 300,000);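 active means mean inhibition across valid replicates above about 55%, limit read from the data; inconclusive means mean below that limit but half or more replicates reach it; inactive means mean below it, under half of replicates reach it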;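 further: signal also drops with host cell toxicity which is not excluded here; 0% = plate median of DMSO wells and 100% = zero luminescence signal; higher percent means less beta-gal luminescence so fewer parasites; stock transfer was 50 nL into about 50 µL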
Beta cell apopt: blocks beta cell apoptosis | protection from apoptosis, % (test concentration not listed) | actives 0.8% (n = 300,000) | INS-1E cytokine-induced death, ATP luminescence, 48 h; percent of positive-control rescue, neutral wells zero;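 active means all replicates at 75% or more, or half of them and the mean; inconclusive means half reach 75% but not the mean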;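 further: 0% = cytokine-treated negative control wells and 100% = positive control rescue; higher means more ATP so stronger rescue from cytokine killing; wells of about 40 µL received 100 nL stock; the first replicate is given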
AF4-AF9 inh: MLL-AF4/AF9 protein interaction inhibition. AID 651704. P42568. inhibition, % at 10 µM. actives 0.47% (n = 350,000). AlphaScreen, biotin-AF4 peptide binding to FLAG-AF9;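 active means every replicate reaching a set inhibition limit, whatever the replicate mean, cut at about 25% in these data; inconclusive means mean inhibition reaches that limit but some replicates miss it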;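 further: 0% = plate neutral control median and 100% = total signal loss; the record names both 10 and 1 µM as test concentration; the first replicate is given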
Target sequence (P42568 whole entry, looked up): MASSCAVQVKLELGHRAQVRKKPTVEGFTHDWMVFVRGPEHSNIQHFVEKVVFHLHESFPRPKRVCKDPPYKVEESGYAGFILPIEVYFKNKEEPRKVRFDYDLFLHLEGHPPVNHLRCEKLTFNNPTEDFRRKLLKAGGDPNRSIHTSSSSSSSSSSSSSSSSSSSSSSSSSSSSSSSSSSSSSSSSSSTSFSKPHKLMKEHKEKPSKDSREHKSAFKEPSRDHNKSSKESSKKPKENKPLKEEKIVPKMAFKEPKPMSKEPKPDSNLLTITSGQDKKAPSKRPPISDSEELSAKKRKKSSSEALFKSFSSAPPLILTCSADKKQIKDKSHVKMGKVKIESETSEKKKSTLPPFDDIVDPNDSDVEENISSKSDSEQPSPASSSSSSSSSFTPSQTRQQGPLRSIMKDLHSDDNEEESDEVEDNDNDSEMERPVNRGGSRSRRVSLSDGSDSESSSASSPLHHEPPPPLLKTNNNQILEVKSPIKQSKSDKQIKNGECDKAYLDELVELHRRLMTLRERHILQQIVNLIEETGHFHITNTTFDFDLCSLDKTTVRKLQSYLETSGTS
LANA-H2B inh: blocks KSHV LANA binding to histone H2A/H2B; Q9QR71; cell-free LANA-H2A/H2B peptide, fluorescence polarization; inhibition, % (no concentration beside the values); actives 0.6% (n = 320,000); AID 2629; in the data active means inhibition mostly above about 10%, no sharp cut-off; inactive means mostly below about 6.7%;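 further: stock transfer was 7.5 nL into about 10 µL; 0% = median of vehicle wells and 100% = median of positive control wells; one replicate is shown; the record names a cut of 25% in any replicate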
Vif TR-FRET: HIV-1 Vif–A3G interaction blockers – biochemical, TR-FRET, GST-Vif 1-94, biotin-A3G peptide, dose response retest, primary screen (AID 1117319); TR-FRET GST-Vif / biotin-A3G peptide binding; higher % means a stronger effect; test concentration not given here; strong numbers were not always called active; inhibition, %, or IC50 in µM where a hit was titrated; actives 0.57% (n = 260,000);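 active means above the screen mean plus three standard deviations and confirmed in dose response; inconclusive means results disagree or hit not tested in dose response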;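 further: Vif residues 1-94 fused to GST binding biotinylated APOBEC3G peptide 110-148; 0% = full assay without inhibitor and 100% = GST in place of GST-Vif; retest series ran down from 100 µM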
RanGTP-Imp inh: disruptors of Ran-importin-beta complex formation – biochemical, FRET, CFP-Ran, YFP-importin-beta, homogeneous, primary screen; cell-free CFP-Ran/YFP-importin-beta FRET ratio; inhibition, % (test concentration not listed); actives 1.1% (n = 300,000);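 active means most replicates above 15%; inconclusive means exactly half above 15%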;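 further: 0% = DMSO wells and 100% = Ran loaded with GDP instead of GTP; wells of about 40 µL received 100 nL stock; the first replicate is given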
Calb FLC: affects C. albicans growth with fluconazole. C. albicans CaCi-2 (fluconazole-resistant clinical isolate) + fluconazole, Alamar Blue growth, 48 h. growth inhibition, % (test concentration not listed). actives 0.57% (n = 300,000). AID 1979;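 active means most replicates above 75%; inconclusive means exactly half above 75%; inactive means most below 75%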;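 further: all wells also contain fluconazole at 8 µg/ml as a sub-toxic cotreatment; 0% = median of DMSO wells and 100% = median of geldanamycin control wells; wells of about 8 µL received 7.5 nL stock; the first replicate is given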
A1 inh: inhibitors of the anti-apoptotic protein A1, read as caspase activation | MEF A1-2A-BIM cells, Caspase-Glo 3/7 luminescence, 3 h; percent of clofoctol response, vehicle zero | caspase activation, % (test concentration not listed) | actives 0.066% (n = 330,000);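 active means over half of replicate activation scores above 10%, or exactly half above 10 with the replicate mean above 10; inconclusive means replicate mean below 10 yet half the replicates above 10; inactive means over half of replicates below 10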;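 further: wells of about 30 µL received 50 nL stock; many hits fall short of the cut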
The depositor's hits bear a star; ? = inconclusive; nt = not tested or not shown.

SMILES	T cruzi inh	Beta cell apopt	AF4-AF9 inh	LANA-H2B inh	Vif TR-FRET	RanGTP-Imp inh	Calb FLC	A1 inh
O=C(COc1ccc(-c2ccccc2)cc1)NNC(=O)Nc1ccc(F)cc1F	-14	0	-11	2.2	nt	0.0	4	-0.3
COC(=O)c1ccc(CSc2nnc(-c3ccc4c(c3)OCO4)n2-c2ccccc2)o1	7	nt	nt	-2.6	1%	-1.5	-6	0.6
CCOc1ccc(S(=O)(=O)N2CCCC(C(=O)NCc3ccncc3)C2)cc1C (stereo not drawn)	-6	-6	-1.4	2.3	-5%	-1.7	-4	-0.4
Clc1ccc(-c2cn(-c3ccc(Cl)cc3)c3[n+]2CCCCC3)cc1	31	30	-5.1	-1.8	2%	4.1	-19	1.3
Cc1ccc(C)c(OCC(=O)N2CCN(c3ncccn3)CC2)c1	nt	-2	0.7	nt	-1%	nt	nt	-0.5
Cc1cc(Nc2ccccc2)n(-c2ccc(Br)cc2)n1	17	-8	nt	-0.4	3%	-0.1	-4	-0.9
COc1cccc(NC(=S)N2CCCC2c2ccc(OC)c(OC)c2)c1 (stereo not drawn)	1	1	-16	-5.0	-14%	3.0	16	-0.3
Cc1ccc(C(C(=O)NCCc2ccccc2)N(C(=O)c2csnn2)C2CC2)o1 (stereo not drawn)	0	-4	nt	1.3	0%	-1.4	-5	1.2
COc1cccc(CC2(CO)CCCN(Cc3ccccc3Cl)C2)c1 (stereo not drawn)	26	-8	-0.1	-1.3	nt	-0.1	3	-0.3
Cc1ccc(S(=O)(=O)N2C(=O)/C(=C3\SC(=S)NC3=O)c3ccccc32)cc1	3	5	nt	3.4	-10%	-0.6	0	-0.2
CCC1(CC)C(=O)C2=C3C1[C@H](C(=O)OC)C=C(C(=O)OC)C[C@H]3[C@H]1C(=O)N(Cc3ccccc3)C(=O)[C@H]1[C@H]2C (stereo partly drawn)	13	-8	2.2	2.8	nt	-1.9	14	0.2
Oc1ccccc1/C=N/n1cnnc1	1	-1	nt	1.6	4%	2.2	11	-0.2
COc1cccc(/C=N/Nc2nn3cnnc3c3ccccc23)c1	-4	34	nt	-0.5	8%	-0.1	0	?
CCOC(=O)CCCc1sc(N)nc1-c1[nH]c(=O)[nH]c1C	-12	-5	nt	-1.3	?	2.8	21	0.5
CCOC(=O)c1ccc(-n2cc(C(=O)c3cccnc3)nn2)cc1	-7	-3	-3.6	5.0	-3%	0.5	-9	-9.3
C=CCN1C(=O)/C(=C/c2ccc(N(C)C)cc2)S/C1=N\c1nnc(CC)s1	34	nt	nt	nt	2%	-20	21	nt
Cc1cc(C(=O)OCC(=O)Nc2c(Cl)cccc2Cl)c(C)o1	nt	-2	-1.4	-0.9	-7%	nt	nt	1.0
Cc1ccc(C)c(-n2ccnc2SCC(N)=O)c1	-12	-9	-1.3	4.9	-13%	-3.3	-2	1.0
CC1(C)CC(=O)C(C=NCC2CCNCC2)=C(O)C1	-7	-1	nt	5.1	5%	-3.6	-6	-0.1
Cc1csc2nc(CNS(=O)(=O)c3cccnc3)cn12	-24	-6	-1.2	0.8	nt	1.3	5	-0.7
COc1ccc(-n2c(SCC#N)nc3ccccc3c2=O)cc1	0	1	nt	1.6	-9%	-1.7	1	0.2
CN(Cc1c(F)cccc1Cl)C(=O)c1ccc(NC(=O)CC2SC(N3CCCC3)=NC2=O)cc1 (stereo not drawn)	16	nt	-0.7	-2.2	-3%	4.8	4	0.6
COc1ccc(NC(NC(=O)c2ccc(OC)cc2)C(Cl)(Cl)Cl)cc1 (stereo not drawn)	-2	15	nt	0.3	3%	-4.4	-4	0.5
CCOc1ccc(N2C(=O)CC(N3CCN(c4ccc([N+](=O)[O-])cc4)CC3)C2=O)cc1 (stereo not drawn)	1	1	-4.3	4.1	-3%	-0.9	-13	2.0
COc1cc(SC)ccc1C(=O)Nc1ccc(C)cc1C	7	3	nt	-0.1	8%	-0.1	24	-11
Following part
SMILES	T cruzi inh	Beta cell apopt	AF4-AF9 inh	LANA-H2B inh	Vif TR-FRET	RanGTP-Imp inh	Calb FLC	A1 inh
CC(N=C1NS(=O)(=O)c2ccccc21)C(=O)OCC(=O)N(C)C1CCS(=O)(=O)C1 (stereo not drawn)	nt	-4	-4.9	-1.5	-2%	nt	nt	-0.9
O=C(COc1ccccc1F)Nc1ccc(S(=O)(=O)NCc2ccco2)cc1	-10	-4	nt	-10	-2%	2.8	-2	0.2
CC(C)c1nnc(NC(=O)c2ccc3ccccc3c2)s1	-6	-4	-0.1	-4.7	-33%	2.1	0	0.0
CCC1Oc2ccc(C)cc2N(CC(=O)N(Cc2ccc(C)o2)C2CC(C)(C)NC(C)(C)C2)C1=O (stereo not drawn)	15	-1	nt	-0.7	nt	0.0	-35	0.3
O=[N+]([O-])CC(=Nc1ccc(Cl)cc1)N/N=C\c1oc(O)c2ccccc12	2	2	nt	-2.6	24%	0.0	-49	-1.3
COc1ccc(C(=O)OC(C)C(=O)NC(C)CCc2ccccc2)cc1[N+](=O)[O-] (stereo not drawn)	-2	-6	1.2	7.9	nt	2.6	9	-0.1
Nc1c(Cl)c(Cl)nc(C(=O)N/N=C/c2ccco2)c1Cl	-17	2	-0.1	3.7	nt	2.0	-4	0.8
CC(=O)c1ccccc1NC(=O)c1ccc(OCc2c(C)noc2C)cc1	nt	-7	0.9	-0.4	1%	nt	nt	-0.1
CC1=C(C)CC(C(=O)NNC(=O)c2csc3c2CCC(C(C)(C)C)C3)C(C(=O)O)C1 (stereo not drawn)	15	0	nt	1.0	-6%	2.4	-2	0.2
CCCNC(=O)c1ccc2c(c1)nc(C)n2-c1cccc(C)c1	-6	0	-1.8	-1.3	-4%	3.5	12	-0.1
Cc1oc(-c2ccc(Cl)cc2)nc1CS(=O)CC(=O)NCc1ccccn1 (stereo not drawn)	6	-4	-1.6	1.0	0%	0.6	23	-0.5
Cc1ccc(S(=O)(=O)N(CCCO)CC(O)CON=C2c3ccccc3-c3ccccc32)cc1 (stereo not drawn)	65*	-1	17	2.0	nt	1.9	1	-0.5
CC(=O)CCn1cnc([N+](=O)[O-])n1	44	3	-1.5	7.0	26%	-1.4	-1	-0.4
Cc1ccc(N=C2NC(=O)/C(=C\c3ccco3)S2)cc1	-18	-1	nt	3.4	?	0.4	-2	-0.5
O=C(c1cc(Cl)ccc1Cl)N1CCOCC1	-9	-2	-2.0	2.8	0%	-3.7	5	0.0
CCCCCCCCOC(=O)C(NC(=O)CCC(=O)Nc1ccc(S(N)(=O)=O)cc1)C(O)c1ccccc1 (stereo not drawn)	-2	3	nt	-2.4	1%	-1.4	0	0.7
O=C(Cc1ccc(-c2ccccc2)cc1)Nc1ncccc1O	8	1	1.9	3.1	-2%	3.7	-3	-2.4
Oc1c(Br)cc(Br)cc1/C=N/n1c(-c2ccccc2)n[nH]c1=S	3	-9	-11	-2.4	1%	-6.3	12	-0.5
Cc1nc2c(sc(=S)n2Cc2ccco2)c(=O)n1CC(=O)Nc1ccc(F)cc1	4	5	-3.2	-3.7	3%	-2.0	-16	1.9
CCN(Cc1ccccc1)C(=O)CN1C(=O)COc2ccc(S(=O)(=O)NC3CCCC3)cc21	4	2	0.5	1.5	13%	0.5	-1	0.6
CCOC(=O)N1CCN(C(=S)Nc2ccc(C)cc2C)CC1	-11	-2	-0.1	1.1	1%	0.6	-5	0.5
Cc1c(CCCN)c2ccccc2n1Cc1ccccc1	0	4	?	1.5	-11%	1.5	-6	0.9
O=C(N/N=C/c1cc(Cl)cc([N+](=O)[O-])c1O)c1ccccc1NS(=O)(=O)c1cccs1	26	1	-0.7	-2.4	13%	0.8	25	-0.4
C/C(=N\NC(=O)COc1ccccc1[N+](=O)[O-])c1cccs1	-3	1	1.2	3.1	16%	?	10	-1.8
O=C(CSc1nc2ncc(Br)cc2[nH]1)c1cccc([N+](=O)[O-])c1	15	2	2.8	6.2	nt	1.5	1	-0.2

Pulled by structure from above:
SMILES	T cruzi inh	Beta cell apopt	AF4-AF9 inh	LANA-H2B inh	Vif TR-FRET	RanGTP-Imp inh	Calb FLC	A1 inh
CCC1Oc2ccc(C)cc2N(CC(=O)N(Cc2ccc(C)o2)C2CC(C)(C)NC(C)(C)C2)C1=O (stereo not drawn)	15	-1	nt	-0.7	nt	0.0	-35	0.3
O=C(CSc1nc2ncc(Br)cc2[nH]1)c1cccc([N+](=O)[O-])c1	15	2	2.8	6.2	nt	1.5	1	-0.2

The list goes on.
SMILES	T cruzi inh	Beta cell apopt	AF4-AF9 inh	LANA-H2B inh	Vif TR-FRET	RanGTP-Imp inh	Calb FLC	A1 inh
CC(C)(C)OC(=O)[C@H](Cc1ccccc1)NC(=O)c1nc[nH]c1C(=O)N1CCN(C(=O)OC(C)(C)C)CC1	22	-3	3.5	0.0	nt	-2.1	9	0.3
CCC(=NCCc1c(C)[nH]c2ccccc12)C1=C(O)CC(c2ccccc2)CC1=O (stereo not drawn)	-13	17	-26	1.6	nt	4.0	14	0.1
Cc1ccc([N+](=O)[O-])c(OCCN2C(=O)NC(C)(C)C2=O)c1	2	-11	-1.9	0.9	-4%	7.7	-4	1.4
Cc1n[nH]c(=S)n1-c1ccc(Cl)cc1	-5	-3	-1.9	-7.7	-4%	0.3	-3	0.1
COc1ccc(/C=N/OCC(=O)N2CCCC2)c(OC)c1	-12	-2	-2.9	0.6	-1%	3.3	-8	-0.5
CCCCNC(=O)/C=C/c1ccc(S(=O)(=O)Nc2ccc(OC)cc2)cc1	10	5	-0.4	0.5	4%	3.2	-10	-0.5
CCC(C)C(=O)Nc1cc([N+](=O)[O-])ccc1Cl (stereo not drawn)	-2	0	6.6	-5.8	0%	-3.4	-19	0.3
O=C(CNC(=O)c1cccs1)N=Nc1c(O)[nH]c2ccc(Br)cc12	-1	-3	-2.5	-2.5	1%	2.2	-11	0.2
Cc1cccc2cc(CN(Cc3ccccc3)C(=O)c3cccc(F)c3)c(Cl)nc12	17	nt	nt	-0.3	-2%	6.6	-8	0.0
CCN(CC)S(=O)(=O)c1ccc(NC=C(C#N)C#N)cc1	0	3	-41	-3.3	2%	-3.0	-9	-0.2
O=C(CNC(c1ccccc1)c1ccccc1)Nc1ccccc1Br	12	2	-0.4	0.4	0%	?	-2	-0.3
O=C(c1cccc(S(=O)(=O)N2CCCC2)c1)c1nnc(-c2ccncc2)o1	-4	nt	nt	-1.8	7%	-2.4	-8	0.8
CCOC(=O)Cn1c(CN(Cc2ccccc2)Cc2ccccc2)nc2c1c(=O)n(C)c(=O)n2C	32	6	nt	-2.2	0%	1.1	29	0.2
O=C(Nc1cc(C(F)(F)F)ccc1F)C1CCC1	-13	-5	nt	-0.8	5%	-2.0	-4	1.1

Part of the list above, limited to A1 inh and LANA-H2B inh:
canonical_smiles	A1 inh	LANA-H2B inh
O=C(Nc1cc(C(F)(F)F)ccc1F)C1CCC1	1.1	-0.8
CCN(CC)S(=O)(=O)c1ccc(NC=C(C#N)C#N)cc1	-0.2	-3.3
O=C(CNC(c1ccccc1)c1ccccc1)Nc1ccccc1Br	-0.3	0.4
Cc1ccc([N+](=O)[O-])c(OCCN2C(=O)NC(C)(C)C2=O)c1	1.4	0.9

Not a hit list; 4.3% or so of the library scored in one or more.
